# Vif A3G: inhibitors of Vif binding to APOBEC3G peptide, primary screen, biochemical, TR-FRET, GST-Vif 1-94, biotin-A3G peptide, dose response retest (AID 1117319) | hit rate 0.57% among 260,000 | inhibition, %, or IC50 in µM where a hit was titrated | TR-FRET GST-Vif / biotin-A3G peptide binding; higher % means a stronger effect; test concentration not given here; strong numbers were not always called active;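 active means above the screen mean plus three standard deviations and confirmed in dose response; inconclusive means results disagree or hit not tested in dose response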;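 further: Vif residues 1-94 fused to GST binding biotinylated APOBEC3G peptide 110-148; 0% = full assay without inhibitor and 100% = GST in place of GST-Vif; retest series ran down from 100 µM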
# HNF4A DNA FP: change in binding of human HNF4 alpha to DNA. P41235. HNF4a-FITC DNA binding, fluorescence polarization, 1 h. activity change, % at 10 µM. hit rate 0.3% among 360,000; in the data active means activity change above about 30%, passing the limit was not always enough;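 further: controls were the assay level and a saturating level of protein; the project sought stronger binding though the title names inhibitors; some compounds called inactive have numbers as strong as hits; positive values seem to mean higher polarization but the record does not say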
# Target sequence (P41235 whole entry, looked up): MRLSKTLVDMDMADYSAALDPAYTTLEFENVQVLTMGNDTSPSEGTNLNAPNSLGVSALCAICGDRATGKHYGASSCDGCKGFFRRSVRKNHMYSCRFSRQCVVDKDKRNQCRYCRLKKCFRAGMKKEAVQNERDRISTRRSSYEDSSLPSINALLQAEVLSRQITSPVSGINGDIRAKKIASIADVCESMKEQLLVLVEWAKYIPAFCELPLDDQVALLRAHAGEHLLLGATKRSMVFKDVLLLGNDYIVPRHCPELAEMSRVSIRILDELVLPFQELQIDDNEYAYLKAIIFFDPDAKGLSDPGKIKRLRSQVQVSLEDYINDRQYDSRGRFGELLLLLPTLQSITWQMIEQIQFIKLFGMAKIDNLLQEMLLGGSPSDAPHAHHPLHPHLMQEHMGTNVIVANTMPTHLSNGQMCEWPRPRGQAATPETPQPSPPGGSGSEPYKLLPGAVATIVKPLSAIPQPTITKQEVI
# ALR inh: human ALR oxidase inhibition via reduced H2O2; hit rate 3.8% among 290,000; inhibition, % (no concentration beside the values); AID 485317; purified ALR, DTT oxidation, H2O2 HRP-luminol luminescence;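 active means mean and each replicate at 75% or more; inconclusive means only one of the two met; inactive means neither met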;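 further: stock transfer was 7.5 nL into about 7.5 µL; 0% = neutral wells and 100% = wells with inactivated enzyme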
# Target sequence (P55789 whole entry, looked up): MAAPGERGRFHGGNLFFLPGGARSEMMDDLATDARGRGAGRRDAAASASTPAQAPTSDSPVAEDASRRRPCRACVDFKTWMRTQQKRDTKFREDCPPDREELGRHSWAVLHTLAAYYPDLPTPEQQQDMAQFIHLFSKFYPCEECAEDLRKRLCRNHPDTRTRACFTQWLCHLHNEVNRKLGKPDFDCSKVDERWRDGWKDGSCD
# Calb FLC: C. albicans growth modulation with fluconazole. C. albicans CaCi-2 (fluconazole-resistant clinical isolate) + fluconazole, Alamar Blue growth, 48 h. growth inhibition, % (no concentration beside the values). hit rate 0.57% among 300,000;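 active means most replicates above 75%; inconclusive means exactly half above 75%; inactive means most below 75%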;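 further: all wells also contain fluconazole at 8 µg/ml as a sub-toxic cotreatment; 0% = median of DMSO wells and 100% = median of geldanamycin control wells; wells of about 8 µL received 7.5 nL stock; the first replicate is given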
# B2AR ag: activates human beta-2 adrenergic receptor causing internalization; P07550; Am2.2-beta2AR cells, FAP receptor internalization, flow cytometry; reference of the scale not given here; response, % (test concentration not listed); hit rate 0.43% among 340,000; AID 504454;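 active means response above a set limit, near 3 SD of response in nonfluorescent compounds, cut at about 42% in these data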;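 further: stock transfer was 100 nL into about 11 µL; a reference agonist was the positive control; negative values mostly stem from fluorescent compounds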
# Target sequence (P07550 whole entry, looked up): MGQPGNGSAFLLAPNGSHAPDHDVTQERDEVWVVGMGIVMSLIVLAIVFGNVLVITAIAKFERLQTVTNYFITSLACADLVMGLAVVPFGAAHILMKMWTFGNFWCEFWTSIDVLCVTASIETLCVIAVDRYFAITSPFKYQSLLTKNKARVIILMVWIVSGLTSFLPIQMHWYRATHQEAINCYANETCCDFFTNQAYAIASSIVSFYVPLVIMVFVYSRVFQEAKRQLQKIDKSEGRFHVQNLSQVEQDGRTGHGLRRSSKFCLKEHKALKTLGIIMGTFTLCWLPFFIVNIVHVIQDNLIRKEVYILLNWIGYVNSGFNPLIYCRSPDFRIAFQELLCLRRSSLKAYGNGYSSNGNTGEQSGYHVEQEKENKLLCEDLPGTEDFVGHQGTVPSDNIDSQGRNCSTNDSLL
# LANA-H2A inh: blocks KSHV LANA binding to histone H2A/H2B; cell-free LANA-H2A/H2B peptide, fluorescence polarization; inhibition, % (concentration not given with the values); hit rate 0.6% among 320,000; in the data active means inhibition mostly above about 10%, no sharp cut-off; inactive means mostly below about 6.7%;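 further: stock transfer was 7.5 nL into about 10 µL; 0% = median of vehicle wells and 100% = median of positive control wells; one replicate is shown; the record names a cut of 25% in any replicate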
# RanGTP-Impb inh: inhibitors of RanGTP-importin-beta interaction, primary screen, biochemical, FRET, CFP-Ran, YFP-importin-beta, homogeneous | AID 2216 | hit rate 1.1% among 300,000 | inhibition, % (test concentration not listed) | cell-free CFP-Ran/YFP-importin-beta FRET ratio;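 active means most replicates above 15%; inconclusive means exactly half above 15%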;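 further: 0% = DMSO wells and 100% = Ran loaded with GDP instead of GTP; wells of about 40 µL received 100 nL stock; the first replicate is given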
# The depositor's hits bear a star; ? = inconclusive; nt = no result given; & = joins results of further samples. No enrichment for hits. Share with any hit: about 6.3%.
SMILES,Vif A3G,HNF4A DNA FP,ALR inh,Calb FLC,B2AR ag,LANA-H2A inh,RanGTP-Impb inh
O=C(Nc1cccc(S(=O)(=O)N2CCCCCC2)c1)C1CCN(C(=O)c2ccc(F)cc2)CC1,4%,0.4,-1,0,5,-1.5,1.5
NC(=O)C1CCN(CCC(=O)Nc2ccc(Br)cc2)CC1,2%&33%,0.7,-7,50,-5,6.2,-1.5
CN1CCN(C(=O)c2ccc(CNS(=O)(=O)c3ccc(F)c(Cl)c3)cc2)CC1,nt,-1.0,-19,-6,-4,-5.1,5.3
Cc1cc(NC(=O)COn2nnc3ccc(Cl)cc32)no1,2%,0.4,-2,1,-4,4.5,0.3
CCN(c1ccccc1)S(=O)(=O)c1ccc(C(=O)Nc2ncccc2C)cc1,2%,0.0,3,-3,-4,-2.1,-0.9
CCC(C(=O)NC(C)(C)C)N(Cc1ccco1)C(=O)Cn1nnc(-c2ccc(F)cc2)n1 (stereo not given),-3%,-5.6,nt,-8,-3,0.4,2.4
CCc1ccc(CN2CCC(n3nccc3NC(=O)c3cccc(F)c3)CC2)cc1,4%,-1.5,5,12,21,-0.2,-3.0
COc1ccc(NC(=O)COc2cccnc2[N+](=O)[O-])cc1OC,17%,-52,nt,3,-10,-4.2,-1.7
Cc1ccc(S(=O)(=O)N2CCN(S(=O)(=O)N3CCCCC3)CC2)c(C)c1,22%,-3.3,100*,4,-4,-5.5,?
O=C(/C=C/c1c(F)cccc1Cl)N1CCc2ccccc2C1,-1%,3.8,-5,2,0,0.4,-0.5
CC(=O)c1ccc(N(CC(=O)NC2CCCC2)C(=O)c2ccc(C)s2)cc1,nt,-1.1,2,-9,0,-3.6,-2.4
Cc1ccccc1-n1c(=O)cc(N2CCC3(CC2)OCCO3)[nH]c1=O,13%,-1.9,18,8,5,6.5,33*
CN1CCCN(S(=O)(=O)c2ccc3ccccc3c2)CC1,nt,1.9,-1,-4,-6,3.4,-1.9
CC(Oc1ccccc1)C(=O)Nc1ccccc1O (stereo not given),3%,-3.7,90*,-3,5,2.6,-2.8
O=C(O)c1ccccc1SC1CC(=O)N(C2CCCCC2)C1=O (stereo not given),-2%,5.0,4,-7,4,3.3,3.8
Cc1cc(S(=O)(=O)NCCC2=CCCCC2)ccc1Br,3%,2.8,-16,-2,-12,1.6,?
Cc1ccc(NS(=O)(=O)c2cc(OCC(N)=O)c(C)cc2Cl)cc1C,31%,-2.8,-4,9,3,-0.7,3.7
CCOC(=O)CCCNC(=O)CCNC(=O)c1ccc(OC(C)C)cc1,0%,1.0,-5,-2,10,-2.1,10
COc1ccc(/C(N)=N/OC(=O)c2cccc([N+](=O)[O-])c2C)cc1,8%,1.6,-22,-4,10,-3.2,-0.5
Cc1noc(C)c1COC(=O)c1cc2ccccc2cc1O,-1%,1.4,-7,-2,2,5.2,?
Cc1[nH]c(=O)[nH]c(=O)c1S(=O)(=O)Nc1ccc(S(N)(=O)=O)cc1,nt,0.2,9,5,3,-1.5,4.9
COCCCNCCCOc1ccc(C)cc1Br,nt,0.7,-4,3,-7,-2.3,?
Cc1c(NC(=O)c2cc(-c3ccc(Cl)c(Cl)c3)on2)c(=O)n(-c2ccccc2)n1C,-5%,5.1,5,-7,-5,-5.8,2.3
Cc1ccc(NS(=O)(=O)c2ccc(-c3cnc(C4CC4)o3)cc2)c(C)c1,5%,0.6,24,12,21,2.1,0.0
CCOCC(O)CSCc1ccc(Cl)cc1 (stereo not given),24%,2.6,-2,-20,7,-18,7.1
Cc1ccc(NCc2nnc(SCC(=O)N3CCc4ccccc43)n2C)cc1,31%,1.3,34,?,10,0.4,-2.2
Cc1ccc(S(=O)(=O)N2CCCCC2)cc1NC(=O)Cn1cnnn1,5%,9.5,3,1,-4,0.5,0.6
CC(/C=N/n1c(C2CCCCC2)n[nH]c1=S)=C\c1ccccc1,6%,-3.8,3,6,-5,5.7,-2.4
CCC(=O)N1CCN(c2ccc(Cl)cc2NC(=O)c2ccc([N+](=O)[O-])o2)CC1,nt,0.0,-28,33,-13,0.9,2.5
c1ccc(CCc2cc3ccccc3[nH]2)cc1,nt,1.9,16,nt,-4,-0.3,nt
O=C(CSc1ccc(-c2cccnc2)nn1)N1CCCc2ccccc21,nt,nt,-2,4,nt,-1.4,1.9
CCOC(=O)Cc1ccc(NC(=O)c2ccccc2Br)cc1,-7%,1.4,nt,37,13,-14,3.7
C=CCOc1ccc(CN(C)C(=O)c2ccc(CNS(=O)(=O)c3ccc(C)c(C)c3)cc2)cc1,-13%,1.4,-1,nt,1,0.1,nt
Cn1cccc1Cc1nnc(SCC(=O)NCc2ccc3c(c2)OCO3)n1CCc1ccccc1,-3%&3%,-1.5,30,-5,2,2.2,1.4
Cc1cnc(NC(=O)CSc2nnc(Cc3ccccc3)n2C)s1,1%,0.0,-1,17,10,2.4,2.8
Cc1ccc(S(=O)(=O)N2CC3(C)CN(S(=O)(=O)c4ccc(C)cc4)CC(C)(C2)C3)cc1,1%,-1.0,-1,0,10,-0.7,4.4
Cc1ccc(NC(=S)NC2CC3CCC(C2)N3Cc2ccco2)cc1C (stereo not given),-1%,0.0,0,-12,-3,-4.0,-1.0
N/C(=N\OC(=O)c1cccc(Cl)c1)c1cccnc1,4%,2.2,5,-1,-2,-1.4,0.3
O=C(Nc1nccs1)c1cc2c(s1)CCCCC2,-6%,-1.3,37,1,1,1.7,3.5
S=C(Nc1ccc(Br)cc1Cl)NN1CCOCC1,nt,0.9,17,-12,4,-4.0,0.2
O=C(c1ccc(S(=O)(=O)Cc2ccccc2F)c([N+](=O)[O-])c1)N1CCCC1,2%,1.0,4,14,-7,-1.4,2.5
CC1(C)CC2CC(C)(CN2S(=O)(=O)c2ccc(F)cc2F)C1 (stereo not given),3%,0.8,-9,nt,-2,-4.2,nt
O=C(NOCc1ccccc1)c1ccc(Cl)cc1Cl,2%,0.1,nt,nt,6,0.0,nt
COc1ccc(-c2nc(N3CCC(C)CC3)[nH]c(=O)c2C#N)cc1,-15%,-2.7,-9,-26,2,-3.2,-1.2
Cc1nn(-c2ccccc2)c(Cl)c1C(=O)NCCN(C)C,nt,-1.1,-2,-6,0,0.2,?
O=[N+]([O-])c1ccc(NCc2ccc3c(c2)OCO3)cc1,-15%,0.1,-1,3,1,4.5,-2.4
CN(C)c1ccc(C(=O)/C=C/c2cccnc2)cc1,3%,1.0,5,2,10,-0.7,4.4
CC(=O)Oc1ccc(Cl)cc1/C=C/c1cc(OC(C)=O)c2ccccc2n1,-10%,nt,nt,2,nt,3.6,-2.9
CSc1nnc(C)c(/C=C/Nc2ccc(Cl)cc2)n1,4%,59*,6,3,-32,-2.1,-23
CN(C)S(=O)(=O)c1ccc(NC(=O)CN2CCN(C(c3ccccc3)c3ccccc3)CC2)cc1,2%,4.5,0,-6,4,-1.2,0.2
# The results go on.
SMILES,Vif A3G,HNF4A DNA FP,ALR inh,Calb FLC,B2AR ag,LANA-H2A inh,RanGTP-Impb inh
CCOc1ccc(C(=O)O[C@H]2[C@H](Cc3ccccc3)NS(=O)(=O)[C@H]3C[C@@H]4C=C[C@]23O4)cc1,nt,-2.2,-12,nt,-2,4.0,nt
COc1ccc(CCNC(=O)c2ccc(NS(=O)(=O)c3ccc4[nH]c(=O)[nH]c4c3)cc2)cc1,-1%,0.0,-3,-21,-7,-2.8,-2.7
O=S(=O)(c1ccc(S(=O)(=O)N2CCCC2)cc1)N1CCCCC1,nt,nt,-11,-15,nt,0.4,-0.1
COCCCNC(=S)Nc1cccc2ncccc12,-3%,-2.3,-332,16,14,2.4,0.6
COc1ccccc1C(=O)NC(C(=O)NCCc1nc2ccccc2[nH]1)=C(C)C,nt,1.6,2,2,-6,-0.5,3.1
Cc1cc(/C=C2/NC(=O)N(Cc3ccccc3F)C2=O)c(C)n1C(C)C,14%,-5.7,-3,9,13,-0.6,2.6
COC(=O)c1c(NC(=O)Cc2ccccc2)sc2c1C(C(=O)OC)CC2 (stereo not given),-1%,0.7,nt,-4,5,2.0,0.9
COc1ccc(C)cc1NC(=O)c1cc(S(=O)(=O)N2CCCC2)cn1C,nt,4.7,-9,12,-3,-1.5,1.5
O=C(CCN1CCN(C(=O)c2ccccc2)CC1)c1ccc(Br)cc1,nt,1.0,14,-7,7,3.5,-5.1
O=C1C(Cl)=C(N2CCN(Cc3ccccc3)CC2)C(=O)N1Cc1ccccc1,0%,-22,-11,2,0,-0.4,-2.5
O=C(Nc1nc(-c2ccc3c(c2)Cc2ccccc2-3)cs1)c1ccccc1,1%,-1.5,-1,0,2,-8.9,-0.7
CCN1C(=O)NC(c2cccnc2)C(C(=O)OC)=C1C (stereo not given),-1%,-5.5,-5,-4,1,-2.9,?
COCCCNc1nc(N)c([N+](=O)[O-])c(N2CCCCCC2)n1,0%,2.5,0,-24,3,-1.0,-2.5
COc1ccc(CCNC(=O)C2CCCN(c3nn4c(=O)cc(C)nc4s3)C2)cc1OC (stereo not given),?,0.7,nt,-3,1,nt,2.9
COc1cc(C)c(Br)cc1S(=O)(=O)N1CCOCC1,-5%,-3.6,-18,-3,7,-1.7,?
COc1ccc(OC)c(C(=O)COC(=O)c2c(OC)cccc2OC)c1,-4%,2.6,-21,1,3,3.0,-1.6
COc1cccc(C=NCCCN=Cc2cccc(OC)c2O)c1O,0%,-3.2,11,2,2,1.1,-2.7
COc1ccc(NC(=O)CN(C)CC(=O)NCCc2ccc(F)cc2)cc1,7%,-0.3,nt,nt,-6,nt,nt
CCN(CC(=O)Nc1c(F)cccc1F)C(=O)CNC(=O)c1ccc(Br)o1,4%,-1.0,0,-2,-1,4.7,1.1
N#Cc1ccsc1NC(=O)CCS(=O)(=O)c1ccccc1,15%,-2.0,10,44,4,-43,0.4
CCOc1ccccc1NC(=O)Cn1c(=O)sc2ccccc21,-5%,3.4,nt,-9,4,-8.5,-1.1
O=C(COC(=O)CC1CC2CCC1C2)Nc1cc([N+](=O)[O-])ccc1F (stereo not given),-4%,-1.8,28,-7,3,1.0,3.2
COc1ccc(C)cc1NC(=O)C(=O)NNC(=O)c1ccco1,2%,0.4,nt,4,-2,3.1,0.3
COc1cc(NC(=O)[C@H](C)NC(=O)N2CCn3c2nc2ccccc23)cc(OC)c1,-2%,-1.1,-7,2,3,-0.7,0.7
CCOC(=O)c1c(CSc2ccccc2)n(C)c2cc(Br)c(OCC(O)CNC(CO)(CO)CO)cc12 (stereo not given),-9%,2.9,-21,-8,8,-5.1,0.0
Cc1sc2nc(CN3CCOCC3)nc(N3CCOCC3)c2c1C,3%&4%,0.5,18,?,2,3.0,2.1
Cc1ccccc1CSc1nnnn1-c1ccc(C(N)=O)cc1,-6%,2.6,0,8,6,-1.5,1.5
CN(C)C(=S)NC1(C)CCS(=O)(=O)C1 (stereo not given),-5%,-0.6,-4,2,1,-2.4,-2.0
OCCNc1cc(-n2nc(-c3ccccc3)cc2-c2ccccc2)ncn1,3%,3.7,96*,9,-11,0.6,4.7
O=C(CCCOC(=O)c1ccc(O)cc1)c1ccccc1,-10%,-3.2,1,nt,0,1.3,nt
Cc1ccc(NC(=O)C2CCCN2C(=O)c2cccs2)c(C)c1 (stereo not given),nt,-0.8,3,-4,-2,2.8,5.5

# Two of the compounds above, with each value named.
CC1(C)CC2CC(C)(CN2S(=O)(=O)c2ccc(F)cc2F)C1 (stereo not given)
  Vif A3G: 3% | HNF4A DNA FP: 0.8 | ALR inh: -9 | Calb FLC: nt | B2AR ag: -2 | LANA-H2A inh: -4.2 | RanGTP-Impb inh: nt

O=C(NOCc1ccccc1)c1ccc(Cl)cc1Cl
  Vif A3G: 2% | HNF4A DNA FP: 0.1 | ALR inh: nt | Calb FLC: nt | B2AR ag: 6 | LANA-H2A inh: 0.0 | RanGTP-Impb inh: nt
